Source: PubChem (National Center for Advancing Translational Sciences (NCATS))
SARS PLpro yeast = inhibitors of SARS-CoV papain-like protease in yeast; S. cerevisiae expressing SARS-CoV PLpro, growth rescue; control for the full effect not named in the record; Potency, µM (series often up to 32.9 µM), for inactives: top-dose activity, positive = growth rescue; 0.19% of 330,000 active; AID 485353; active means well fitted rising curve with a large enough effect; inconclusive means small, poorly fitted or top-dose-only effect; inactive means no such curve, though single readings can be large or run the other way; note: 0% is about no effect; nearly all actives have a fitted effect of over 55% in size; growth read by luminescence after 48 h
StopGo reporter = lowers the luciferase signal of an FMDV 2A StopGo reporter; human cells with a luciferase reporter of 2A StopGo recoding; control for the full effect not named in the record; Potency, µM (series often up to 57.9 µM), for the others: top-dose signal change, negative = less light; 1.2% of 410,000 active; active = well fitted falling curve with a large enough effect; inconclusive = small, poorly fitted or top-dose-only effect; inactive = no such curve, though single readings can be large or run the other way; tested in HEK293T cells; note: % is set by controls: 0 for no effect and ±100 for the full control effect; nearly all actives have a fitted effect of over 45% in size; luciferase light after 4 h
RE007 growth inh = less growth of the S. pombe RE007 Vpr strain | S. pombe RE007 Vpr strain, BacTiter-Glo ATP luminescence, 24 h; control for the full effect not named in the record | Potency, µM (highest dose often 92.2 µM), for the others: at the highest dose activity change, negative = less growth | 0.21% of 360,000 active | AID 651644; active = well fitted falling curve with a large enough effect; inconclusive = small, poorly fitted or top-dose-only effect; inactive = no such curve, though single readings can be large or run the other way;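 note: % is set by controls: 0 for no effect and ±100 for the full control effect; nearly all actives have a fitted effect of over 50% in size; the assay follows cell death caused by Vpr and the record does not say whether a fall means rescue or toxicity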
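Fission yeast RE007 carrying one integrated HIV-1 vpr copy, seeded at OD 0.01 in PMG+AL medium with 23 nL pinned compound. Grown 24 h at 30 degrees; viability read by BacTiter-Glo luminescence after 5 min.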
LASV entry inh = Lassa virus entry inhibition | Lassa virus pseudotype entry inhibition, cell reporter; control for the full effect not named in the record | 1.2% of 300,000 active | Potency, µM (highest dose often 37.9 µM), for inactives: at the highest dose activity change, negative = inhibition, hits mostly inhibitors | AID 540256; active means well fitted inhibition curve with a large enough effect; inconclusive means small, poorly fitted or top-dose-only effect, or effect the other way; inactive means flat fitted curve, though single readings scatter; tested in HEK293 cells; note: % is set by controls: 0 for no effect and ±100 for the full control effect; nearly all actives have a fitted effect of over 50% in size; luciferase read-out
Cruzain Triton = blocks cruzain activity in presence of Triton detergent | P25779 | purified cruzain, Z-FR-AMC fluorescence, 0.01% Triton | Potency, µM, inactives show max response, negative = inhibition, actives largely listed as inhibitors | 0.43% of 200,000 active;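 note: plate controls were neutral wells for no effect and buffer without enzyme for full effect; nearly all actives have a fitted effect of over 40% in size; top concentration of the series not given in the record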
Target sequence (P25779 123-467 limits assumed): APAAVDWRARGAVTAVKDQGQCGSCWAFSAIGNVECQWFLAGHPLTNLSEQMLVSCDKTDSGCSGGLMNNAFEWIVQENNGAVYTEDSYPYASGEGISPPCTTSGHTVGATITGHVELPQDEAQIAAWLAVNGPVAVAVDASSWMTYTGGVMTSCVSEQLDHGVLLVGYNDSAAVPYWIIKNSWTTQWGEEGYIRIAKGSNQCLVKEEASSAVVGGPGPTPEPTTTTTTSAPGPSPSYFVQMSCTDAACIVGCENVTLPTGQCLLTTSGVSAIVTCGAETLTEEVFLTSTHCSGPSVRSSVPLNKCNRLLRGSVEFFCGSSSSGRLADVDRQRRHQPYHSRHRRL
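Z-FR-AMC hydrolysis (2 uM substrate) by cruzain (1.5 nM) monitored kinetically at ex 360/em 450 nm after 15 min room-temperature compound exposure; 0.01% Triton X-100, pH 5.5, 5 mM DTT.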
Cruzain inh noDet = inhibitors of Trypanosoma cruzi cruzain without detergent; P25779; purified cruzain, Z-FR-AMC fluorescence, no detergent; Potency, µM, for the others: max response, negative = inhibition, hits mostly inhibitors; 2.3% of 200,000 active; AID 1476;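 note: plate controls were enzyme without inhibitor for no effect and buffer without enzyme for full effect; nearly all actives have a fitted effect of over 40% in size; top concentration of the series not given in the record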
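Purified cruzain at 1.5 nM, pre-incubated 15 min with compound at room temperature in 100 mM sodium acetate pH 5.5, 5 mM DTT, 0.00005% Triton X-100. Reaction started with 2 uM Z-FR-AMC; AMC fluorescence increase over 60 s gives rate.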
MARV entry inh = inhibitors of Marburg virus binding or cell entry | Marburg virus pseudotyped entry inhibition, cell reporter; control for the full effect not named in the record; about a third of the inactives were read at about 46 µM | Potency, µM (titrated, usually from 37.8 µM), for the others: at the highest dose activity change, negative = inhibition, hits mostly inhibitors | 1.8% of 300,000 active | AID 540276; active = well fitted inhibition curve with a large enough effect; inconclusive = small, poorly fitted or top-dose-only effect, or effect the other way; inactive = flat fitted curve, though single readings scatter; tested in HEK293 cells; about a fifth of its hits are not listed in these tables; note: % is set by controls: 0 for no effect and ±100 for the full control effect; luciferase read-out
NS1 function inh = influenza NS1 inhibition | S. cerevisiae slowed by influenza A NS1, growth recovery by OD600 | Potency, µM (titrated, usually from 46.1 µM), without a hit: top-dose activity, positive = more growth | 0.4% of 270,000 active | AID 2326; active means well fitted rising curve with a large enough effect; inconclusive means small, poorly fitted or top-dose-only effect; inactive means no such curve, though single readings can be large or run the other way; note: nearly all actives have a fitted effect of over 50% in size
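Compounds were scored for reversing the slow growth caused by influenza A NS1 in S. cerevisiae, measured by optical density at 600 nm. Assay medium contained 2% galactose at pH 6.0; NS1-free yeast of the same strain were the positive control.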
Active calls of the source: *; ? = inconclusive; / = no result given; [ ] = another dose, or the depositor's remark. Unless noted, calls come from the whole dose curve; as a rule, active = well fitted curve in the direction sought with a large enough effect; inconclusive = small, poorly fitted or top-dose-only effect, or another doubt; inactive = no such curve, though single readings can be large; an effect the other way counts as inactive or inconclusive. Potency is the fitted concentration of half-maximal effect.

cpd	SMILES	SARS PLpro yeast	StopGo reporter	RE007 growth inh	LASV entry inh	Cruzain Triton	Cruzain inh noDet	MARV entry inh	NS1 function inh
1	FC(F)(F)COc1nc(N2CCOCC2)nc(N(c2ccccc2)c2ccccc2)n1	-22%	?	15%	?	-9.3%	?	13µM*	-7%
2	Cc1ccc(Oc2ccc(Cl)cc2NC(=O)c2cnccn2)cc1	0%	?	-13%	3%	-17%	3%	-2%	0%
3	COc1cccc(C(=O)c2c[nH]c(C(=O)NCc3ccco3)c2)c1	6%	7%	0%	?	0.4%	1%	-2%[46.1 µM]	10%
4	CCN(CC)C(=O)CN(c1cccc(C(F)(F)F)c1)S(C)(=O)=O	1%	8%	20%	21%	3.7%	-3%	11%	-2%
5	O=C(Nc1ccccc1)c1cc(S(=O)(=O)NCc2ccncc2)ccc1Cl	0%	?	-6%	?	/	/	?	-4%
6	O=C(C1CCCCC1)N(Cc1cccnc1)c1nc2ccc(F)cc2s1	/	0%	/	?	-7.9%	-3%	/	/
7	O=C(CCC(=O)Nc1nnc(C2CCCCC2)s1)NCc1ccc(F)cc1	-8%	-6%	1%	17%[46.1 µM]	/	/	?	-6%
8	Cc1ccccc1N1CCN(Cc2cccc(C(=O)O)c2)CC1	5%	-22%	11%	11%	-1.0%	-6%	28%	-4%
9	Cc1cc2oc(C(=O)Nc3c(C(=O)Nc4ccccc4)oc4ccccc34)cc(=O)c2cc1C	/	-12%	/	?	0.8%	15%	19%[46.1 µM]	/
10	CCc1nnc(NC(=O)CSc2nnc(C)n2CC2CCCO2)s1 (stereo not given)	3%	5%	0%	-2%	5.3%	-4%	-2%	11%

Looked up by structure from the entries so far, four records:
cpd	SMILES	SARS PLpro yeast	StopGo reporter	RE007 growth inh	LASV entry inh	Cruzain Triton	Cruzain inh noDet	MARV entry inh	NS1 function inh
4	CCN(CC)C(=O)CN(c1cccc(C(F)(F)F)c1)S(C)(=O)=O	1%	8%	20%	21%	3.7%	-3%	11%	-2%
8	Cc1ccccc1N1CCN(Cc2cccc(C(=O)O)c2)CC1	5%	-22%	11%	11%	-1.0%	-6%	28%	-4%
6	O=C(C1CCCCC1)N(Cc1cccnc1)c1nc2ccc(F)cc2s1	/	0%	/	?	-7.9%	-3%	/	/
3	COc1cccc(C(=O)c2c[nH]c(C(=O)NCc3ccco3)c2)c1	6%	7%	0%	?	0.4%	1%	-2%[46.1 µM]	10%

Additional compounds.
cpd	SMILES	SARS PLpro yeast	StopGo reporter	RE007 growth inh	LASV entry inh	Cruzain Triton	Cruzain inh noDet	MARV entry inh	NS1 function inh
11	Cc1cc(=O)oc2c(C)c(OCC(=O)NCCCn3ccnc3)ccc12	-9%	1%	-16%	/	/	/	/	-12%
12	CC(=O)c1ccc(NC(=O)c2cc3sccc3n2Cc2ccc(Cl)cc2)cc1	/	-12%	/	1%[46.1 µM]	-3.7%	?	2%[46.1 µM]	/
13	CC1(N(O)/C=C2\C=CC=CC2=O)CCCCC1=O (stereo not given)	0%	-17%	-1%	/	/	/	1%	5%
14	COc1ccc(CNC(=O)C(=O)NCCC2CCCCN2S(=O)(=O)c2ccccc2)cc1 (stereo not given)	-12%	11%	22%	?	/	/	?	/
15	Cc1ccc(C)c(NS(=O)(=O)c2cc(C(N)=O)ccc2C)c1	5%	47%[activator]	3%	20%	-4.1%	8%	-10%	17%
16	COc1cc2c(cc1OC)/C(=C/C#N)NC(C)(C)C2	-8%	-11%	0%	-1%	-3.3%	-2%	0%	15%
17	O=C(CCCOc1ccccc1)Nc1cccnc1	-10%	11%	-1%	16%	0.0%	-4%	-1%	-8%
18	N#Cc1cccc(NC(=O)Nc2cccs2)c1	0%	24%	14%	16%	-3.8%	-25%	?	-2%
19	S=C(NC1CCCC1)N1CCN(c2cccc(Cl)c2)CC1	-1%	?	-2%	/	/	/	/	-2%
20	Cc1sc2nc(CSCC(=O)N(CCC#N)c3ccccc3)[nH]c(=O)c2c1C	-1%	-9%	6%	/	/	/	/	9%
21	CN1/C(=C/C=N/NC(=O)c2ccc([N+](=O)[O-])cc2)C(C)(C)c2ccccc21	6%	6%	17%	1%	-10%	-14%	-1%	8%
22	O=C(CCn1c(=S)oc2ccccc21)NC1CCCCC1	-2%	8%	2%	/	/	/	/	-1%
23	Cc1cccc(NC(=O)c2ccc(N3C(=O)C4C5C=CC(C6CC56)C4C3=O)cc2)c1 (stereo not given)	0%	25µM*	14%	/	/	/	/	12%
24	Cc1cc(N2CCN(C(=O)c3ccco3)CC2)n2ncc(-c3ccccc3)c2n1	-14%	-5%	-6%	-20%	-22%	?	?	-189%
25	Cc1ccnc(OC(C(=O)O)C(OCCc2ccccc2)(c2ccccc2)c2ccccc2)n1 (stereo not given)	-3%	-8%	15%	/	/	/	/	?
26	Fc1ccc(/C=N/N2CCCCC2)c(F)c1	-3%	-11%	6%	/	/	/	/	0%
27	COc1ccc(S(=O)(=O)N(C)c2ccc(C(=O)NCc3ccco3)cc2)cc1	2%	-1%	-10%	-21%	/	/	-13%	-16%
28	COc1ccccc1CNC(=O)C1(C)Oc2cccnc2NC1=O (stereo not given)	1%	-2%	-1%	/	/	/	-9%[46.1 µM]	/
29	CC(C)NC(=O)c1c(O)c2cccc3c2n(c1=O)CCC3	0%	-19%	-6%	/	/	/	/	-15%
30	CN(CC(=O)Nc1ccccc1Br)C(=O)C1CCN(C(=O)c2ccc(Cl)cc2)CC1	/	-23%	-15%	0%	/	/	3%	/
31	Cc1ccc(NC(=O)Cn2cccc2)cc1Cl	22%	-4%	11%	3%	-0.4%	4%	-25%	-20%
32	CC(C)c1ccccc1NCC(=O)N1CCN(Cc2ccccc2)CC1	-1%	9%	13%	-1%[46.1 µM]	/	/	9%[46.1 µM]	-3%
33	CC(=O)c1ccc(S(=O)(=O)NCc2cccnc2)cc1	-1%	20%	-1%	/	/	/	/	1%
34	Cc1ccnc(NC(=O)Cn2c(=O)oc3cc(S(=O)(=O)N4CCCC4)ccc32)c1	3%	-25%	-5%	/	/	/	/	9%
35	Cc1ccc2cccc(NC(=O)c3ccc(-c4cccc([N+](=O)[O-])c4)o3)c2n1	/	-1%	/	4%[46.1 µM]	-2.5%	-10%	-9%[46.1 µM]	/
36	COc1ccc2nc(N3C(=O)C(O)=C(C(=O)c4ccco4)C3c3ccco3)sc2c1 (stereo not given)	/	4%	-5%	3%	/	/	?	/
37	CCOC(=O)c1oc2c(O)c(O)ccc2c(=O)c1-c1nncn1-c1ccccc1	4%	-14%	-17%	2%	0.7%	-17%	?	12%
38	CCCCC(CC)C(=O)Nc1ccc(Cl)cn1 (stereo not given)	-1%	-5%	6%	-14%	-3.6%	-9%	-2%	-4%
39	COc1ccc(C2C(C#N)=C(N)N(N(C)C)C3=C2C(=O)CCC3)cc1 (stereo not given)	0%	-22%	0%	/	/	/	/	3%
40	CC(C)(C)C(=O)COC(=O)c1cc(-c2ccncc2)nc2ccccc12	-4%	?	9%	?	/	/	-40%[46.1 µM]	-1%
41	COc1ccc([N+](=O)[O-])cc1N(CC(=O)N1CCCCC1)S(C)(=O)=O	2%	16%	4%	8%	/	/	-23%[46.1 µM]	-2%
42	CN(CCN1CCOCC1)Cc1nc(-c2cccs2)no1	0%	12%	8%	/	/	/	/	1%
43	CCCc1cc(=O)oc2cc(OCC(=O)Nc3ccc4c(c3)OCCO4)ccc12	-12%	-2%	3%	-5%	0.9%	-28%	10%[46.1 µM]	10%
44	O=C(c1cccnc1)c1cccnc1	16%	2%	-14%	14%	-0.5%	5%	?	11%
45	O=C(c1ccco1)N1N=C(c2ccc(Cl)cc2)CC1c1ccco1 (stereo not given)	-3%	-14%	1%	/	/	/	/	-14%
46	O=C(Nc1ccccn1)c1cccc(S(=O)(=O)N2CCOCC2)c1	1%	-12%	-9%	12%	1.5%	2%	0%	7%
47	Cc1ccccc1OCC(=O)Nc1ccc(S(=O)(=O)Nc2onc(C)c2C)cc1	-2%	6%	0%	-29%[46.1 µM]	/	/	9%[46.1 µM]	-21%
48	CCOc1ccc(S(=O)(=O)N2CCC(c3ccccc3)CC2)cc1C(=O)O	0%	14%	2%	/	/	/	/	0%
49	COc1cc(C(=O)NC(=S)Nc2nc(-c3ccc(F)cc3)cs2)cc(OC)c1OC	-2%	-5%	-12%	6%	/	/	1%	-1%
50	CCOc1ccc(NC(=O)CN2C(=O)NC(CCc3ccccc3)C2=O)cc1OCC (stereo not given)	2%	-1%	-9%	2%[46.1 µM]	/	/	-2%	/
51	COCN(C#N)c1nc(OC)nc(OC)n1	-1%	/	-3%	4%	2.7%	0%	7%	?
52	O=C(Nc1cccc(S(=O)(=O)N2CCCC2)c1)c1ccc2ccccc2n1	2%	-19%	29%	?	/	/	?	1%
53	Cc1ccc(Cn2ccc(NC(=O)c3cc(-c4ccc(Cl)c(Cl)c4)on3)n2)cc1	/	-24%	/	-1%[46.1 µM]	-2.2%	-3%	5%[46.1 µM]	/
54	CC(C)N(c1ccccc1)c1ccc(NC(=S)NCCN(C)C)cc1	1%	?	9%	?	/	/	11µM*	/
55	CCC1(c2ccccc2)NC(=O)N(CC(=O)N2CCc3ccccc32)C1=O (stereo not given)	1%	-2%	-9%	1%	/	/	-4%	/
56	CCN1CCN(c2ccc(S(=O)(=O)N3CCCCC3)cc2NC(=O)Cc2c(F)cccc2Cl)CC1	2%	-24%	-3%	3%	/	/	?	10%
57	Cc1cccc(NC(=O)Cn2c(=O)oc3cc(S(=O)(=O)N4CCCCCC4)ccc32)c1	/	-25%	/	1%[46.1 µM]	-8.6%	20%	?	/
58	O=C(CN(C(=O)CCC(=O)Nc1nccs1)c1ccc(F)cc1)NCC1CCCO1 (stereo not given)	9%	-22%	-13%	8%	2.3%	5%	13%	-9%
